Source: PubChem
PINK1 expr mod – A Quantitative High throughput Screen to Identify Chemical Modulators of PINK1 Expression; PINK1 immunofluorescence, high-content cytometry, 24 h; Potency, µM (highest dose often 76.6 µM), for the others: at the highest dose activation (PINK1 increase), actives largely listed as activators; 410,000 compounds, 0.2% hits; AID 624263, 2012; active = well fitted activation curve with a large enough effect; inconclusive = small, poorly fitted or top-dose-only effect; inactive = flat fitted curve, though single readings scatter; cell line not stated here;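 further: % of control where 0% means no effect; nearly all actives have a fitted effect of over 65% in size; a mitochondrial uncoupler was the plate control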
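Cells are seeded, rested 12 hours, then given compound at five concentrations or DMSO for 24 hours. After fixation, blocking and antibody staining, PINK1 amount and mitochondrial localization are scored; CCCP serves as control.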
An asterisk follows results filed as active; ? = inconclusive. Potency means the concentration at half of the fitted maximal effect. The list is partial; the hit share may differ from the screen's.

SMILES	PINK1 expr mod
COCCn1c(=O)c(-c2cn(C)c3ccccc23)nc2cnc(Oc3ccc(OC)cc3)nc21	16%
COc1ccccc1C1CN(CCNC(=O)c2cscn2)Cc2ccccc2O1 (stereo not drawn)	-0.5%
FC(F)Oc1ccc(C2=Nn3c(nnc3-c3ccccc3Cl)SC2)cc1OCC1CC1	5.4%
COC(=O)N1CCC2(CC1)CN(c1ccncc1)C2	-0.8%
COCCn1c(=O)cnc2cnc(N3CCOCC3)nc21	0.3%
Cc1cnc(CNc2ncncc2-c2ccc3c(c2)OCO3)cn1	6.4%
CC1(C)c2[nH]c3ccccc3c2C[C@H]2C(=O)N(Cc3ccccc3F)C(=O)N21	23%
COC(=O)[C@@H]1CCCN1Cc1ccc2c(c1)CN(Cc1ccccc1C)CCO2	1.5%
C=CCCCCCCCCCCC/C=C/C(O)COC(C)=O (stereo not drawn)	7.0%
N#Cc1cccc(NC(=O)N2CCCC3(CCN(C(=O)c4ccncc4)CC3)C2)c1	-0.3%
Fc1cccc(CNc2ncnc3ccc(-c4ccc5c(c4)OCO5)cc23)c1	?
O=c1c(-c2cc(F)cc(F)c2)nc2cnc(N3CCOCC3)nc2n1CCc1ccccc1	0.7%
COC(=O)CNC(=O)c1cnn(-c2ncc3c(n2)-c2ccccc2CCC3)c1C1CC1	0.3%
Cn1cc(-c2nc3cnc(N4CCNCC4)nc3n(C3CC3)c2=O)c2ccccc21	0.6%
CC(C)NC(=O)N1CC2(CCN(C(=O)c3cccn3C)CC2)C1	-1.2%
Cc1nc2cnc(N3CCN(C)CC3)nc2n(CCc2ccccc2)c1=O	0.5%
COCCn1c(=O)c(C)nc2cncnc21	0.3%
O=C(Oc1ccccc1)N1CCC2(CCCN(c3ccccn3)C2)CC1	0.5%
CCOC(=O)C1CCCCN1Cc1nc(N2CCN(C(C)=O)CC2)c2ccccc2n1 (stereo not drawn)	1.5%
CC(=O)N1CCC2(CC1)CCN(c1ccc(-c3ccccc3)cc1)CC2	0.7%
Cn1cc(CNC2CCN(c3cccc(NC(=O)c4cccnc4)c3)CC2)cn1	0.2%
Cn1cc(-c2nc3cnc(N4CCNCC4)nc3n(-c3ccccc3)c2=O)c2ccccc21	0.5%
Cc1cnc(-n2ncc(C(=O)NCCc3cccnc3)c2C)nc1-c1cccs1	1.5%
Cn1cccc1C(=O)N1CCC2(CC1)CCN(C(c1ccccc1)c1ccccc1)CC2	0.9%
O=C(CCc1c[nH]c2ccccc12)N1CCC(n2c(C3CCCO3)nc3cc(C(F)(F)F)ccc32)CC1 (stereo not drawn)	1.9%

(next part)
SMILES	PINK1 expr mod
CCC1CN(CCNC(=O)c2ccc3c(c2)OCO3)Cc2cc(OC)ccc2O1 (stereo not drawn)	0.3%
COc1ccc(-c2nc3cnc(N(C)C)nc3n(CCC#N)c2=O)cc1	1.2%
O=C(Nc1cccc(F)c1)N1CCC2(CC1)CCN(C(=O)c1csnn1)CC2	-0.7%
COc1ccccc1CN1CC2(CCN(C(=O)c3cc(C(F)(F)F)cc(C(F)(F)F)c3)CC2)C1	-0.8%
Cc1cc(CNC(=O)c2cnn(-c3nccc(-c4cc(C)sc4C)n3)c2C2CC2)on1	0.4%
NC(=O)CC[C@H](N)C(=O)O	2.1%
COc1cccc(-c2nc(NCc3cccnc3)c3ccccc3n2)c1	-0.7%
CNc1cc(-c2ccccc2CN(C)C)ncn1	0.2%
COc1ccc(-n2c(=O)cnc3cnc(N4CCN(C)CC4)nc32)cc1	-0.2%
CN(C)C(=O)c1ccc(-c2nccc(NCc3cccs3)n2)cc1	-0.7%
CN(C)CC(C)(O)c1ccc2c(c1)CN(Cc1cccn1-c1cccnc1)CCO2 (stereo not drawn)	-1.1%
N#CCCn1c(=O)c(-c2ccccc2)nc2cnc(Nc3ccccc3)nc21	?
COc1ccccc1-c1ccc2ncnc(Nc3ccccc3)c2c1	-0.4%
C#CCNC(=O)[C@H](Cc1ccc(C(=O)c2ccccc2)cc1)NC(=O)OC(C)(C)C	-0.7%
CC(=O)NC(c1ccco1)c1cc(Cl)c2ccc(Cl)nc2c1O (stereo not drawn)	4.1%
O=C(c1ccncc1)N1CCC2(CC1)CCN(c1ncccn1)CC2	-0.3%
COc1cc(CN2CCOc3ccc(C(O)c4cccnc4)cc3C2)cc(OC)c1 (stereo not drawn)	0.2%
COc1ccc(C2CC(=O)c3c(O)cc(O[C@H]4OC(COC5OC(C)C(O)C(O)[C@@H]5O)C(O)C(O)C4O)cc3O2)cc1O (stereo partly drawn)	-1.0%
CO[C@H]1[C@H](NC(=O)c2cccc(F)c2)c2ccccc2C12CCN(Cc1ccco1)CC2	0.4%
CN1CC[C@@]2(CCCN(C(=O)c3cc(C(F)(F)F)cc(C(F)(F)F)c3)C2)C1	1.3%
COc1ccc(-n2c(=O)c(-c3cccs3)nc3cnc(OC)nc32)cc1	?
COc1cc(OC)c2c(=O)c(-c3ccc4c(c3)OCO4)coc2c1	2.5%
CC(=O)c1ccccc1-c1ccc2c(c1)CC(CNC(=O)Cc1c[nH]c3ccccc13)O2 (stereo not drawn)	-0.5%
C=CC(C1=CC(=O)C(OC)=C(OC)C1=O)c1ccccc1 (stereo not drawn)	9.2%
CN(C)C(=O)c1ccc(-c2nc(NCc3cccnc3)c3ccccc3n2)cc1	1.4%

Grouped by structure: the compounds so far with an NH in an aromatic ring
SMILES	PINK1 expr mod
CC1(C)c2[nH]c3ccccc3c2C[C@H]2C(=O)N(Cc3ccccc3F)C(=O)N21	23%
O=C(CCc1c[nH]c2ccccc12)N1CCC(n2c(C3CCCO3)nc3cc(C(F)(F)F)ccc32)CC1 (stereo not drawn)	1.9%
CC(=O)c1ccccc1-c1ccc2c(c1)CC(CNC(=O)Cc1c[nH]c3ccccc13)O2 (stereo not drawn)	-0.5%

Next records follow.
SMILES	PINK1 expr mod
O=C(c1cc(C(F)(F)F)cc(C(F)(F)F)c1)N1CCC2(CC1)CN(Cc1ccncc1)C2	0.9%
COc1ncc2nc(CCc3ccccc3)c(=O)n(C)c2n1	-0.4%
COc1ccc(C2=Nn3c(nnc3-c3ccccc3F)SC2)cc1OC1CCCC1	5.3%
Fc1ccc(N2CCN(Cc3ccc4c(c3)CN(Cc3cccn3-c3ncccn3)CCO4)CC2)cc1	-0.3%
COc1ccccc1-c1ccc(C(=O)N(C)C(C)c2ccon2)c(N2CCN(c3ccccc3F)CC2)n1 (stereo not drawn)	1.1%
COc1ccc(Oc2ncc3nc(-c4ccccc4)c(=O)n(C4CC4)c3n2)cc1	-0.1%
COCC(=O)N1CCC2(CC1)CCN(c1ccccn1)CC2	-1.0%
COc1ccc(N2C(=O)[C@@H]3C[C@H]2CN3Cc2cccn2-c2ccc(Cl)cn2)c(C)c1	0.4%
CC(=O)N1CCC[C@H]1C(=O)N1CCc2c(cnc(C)c2CNC(=O)/C=C/c2cccs2)C1	-0.4%
O=c1c(-c2ccc(F)cc2)nc2cnc(Oc3ccccc3)nc2n1C1CC1	0.2%
C1=C(c2ccc3c(c2)CN(Cc2cccn2-c2ncccn2)CCO3)Cc2ccccc21	0.4%
Cn1c(SCC2CCCO2)nnc1C1CCN(Cc2ccccc2O)CC1 (stereo not drawn)	-0.6%
FC(F)(F)c1ccccc1-c1nc(NCc2cccnc2)c2ccccc2n1	0.7%
COc1ccc(CNc2ncncc2-c2ccccc2C)c(OC)c1	0.3%
COC(=O)[C@@H]1CCCN1C(=O)c1c(OC)cc(=O)n2c1CCN(Cc1c(C)[nH]c3ccccc13)CC2	-0.7%
CO[C@H]1[C@H](NC(=O)c2ccco2)c2ccccc2C12CCN(Cc1cc(Cl)ccc1O)CC2	0.3%
c1ccc(-c2nc(SCc3nc4ccccc4[nH]3)c3oc4ccccc4c3n2)cc1	0.1%
CCCCCCCCCCCCCCC(C(=O)OC)C(O)(CC(=O)OC)C(=O)OC (stereo not drawn)	-0.2%
O=C(O)c1nc2cc(Cl)c(Cl)cc2[nH]c1=O	0.0%
N#Cc1cccc(-c2cncnc2NCc2ccccc2)c1	1.1%
CC(=O)Nc1ccc(C(=O)N2CCCC(n3cc(C(=O)NCC(C)C)nn3)C2)cc1 (stereo not drawn)	0.8%
COCC(=O)N1CCC[C@@]2(CCN(Cc3ccccc3OC)C2)C1	-0.6%
COc1ccccc1N1CCN(c2nc(CNC(=O)C3CCOC(C)(C)C3)nc3ccccc23)CC1 (stereo not drawn)	3.0%
COc1cc(O)ccc1CN1CCc2nnc(C(C)NC(=O)c3cc(F)ccc3F)n2CC1 (stereo not drawn)	-0.2%
O=C(OCC#CCSc1nnc(-c2cccc3ccccc23)o1)c1ccc(F)cc1	2.0%

A stretch from the list above:
SMILES	PINK1 expr mod
CC(=O)c1ccccc1-c1ccc2c(c1)CC(CNC(=O)Cc1c[nH]c3ccccc13)O2 (stereo not drawn)	-0.5%
C=CC(C1=CC(=O)C(OC)=C(OC)C1=O)c1ccccc1 (stereo not drawn)	9.2%
CN(C)C(=O)c1ccc(-c2nc(NCc3cccnc3)c3ccccc3n2)cc1	1.4%
O=C(c1cc(C(F)(F)F)cc(C(F)(F)F)c1)N1CCC2(CC1)CN(Cc1ccncc1)C2	0.9%
COc1ncc2nc(CCc3ccccc3)c(=O)n(C)c2n1	-0.4%

In another format: results already given
smiles: COc1ccccc1N1CCN(c2nc(CNC(=O)C3CCOC(C)(C)C3)nc3ccccc23)CC1 (stereo not drawn)
  PINK1 expr mod: 3.0%

smiles: COc1cc(O)ccc1CN1CCc2nnc(C(C)NC(=O)c3cc(F)ccc3F)n2CC1 (stereo not drawn)
  PINK1 expr mod: -0.2%

Further compounds:
SMILES	PINK1 expr mod
COc1ccc2[nH]cc(CCNc3ncncc3-c3cccc(C#N)c3)c2c1	-1.0%
CN1CCN(c2cc(-c3ccoc3)ncn2)CC1	0.1%
CCC(=O)NC(C)c1cc(Cl)c2ccccc2c1O (stereo not drawn)	2.4%
O=C(c1cc(C(F)(F)F)cc(C(F)(F)F)c1)N1CCC2(CC1)CN(c1ccncc1)C2	0.2%
CCN1CCC(N[C@H]2C[C@@H](C(=O)NC)N(Cc3cccc4ccccc34)C2)CC1	-0.2%
CS(=O)(=O)c1ccccc1-c1csc(N2CCC(C(N)=O)CC2)n1	0.9%
CN(C)c1nc(-c2cccc(NS(C)(=O)=O)c2)nc2ccccc12	1.0%
c1nc(NC2CCNCC2)c2cc(-c3ccoc3)ccc2n1	0.4%
COc1cccc(-c2ccc3ncnc(NCCc4c[nH]c5ccc(OC)cc45)c3c2)c1	-1.0%
Oc1cc(Nc2ccccc2)cc2cccnc12	2.7%
Cn1cccc1C(=O)N1CCC2(CC1)CN(C(=O)Nc1cccc(F)c1)C2	-1.1%
CN1CCN(c2cc(-c3ccccc3C(F)(F)F)ncn2)CC1	2.0%
Cc1ccc2nc(SCC(=O)N3CCC4(CC3)CC4C(=O)Nc3ccc(F)c(F)c3)[nH]c2c1 (stereo not drawn)	-0.4%
COc1ccc(-c2[nH]ncc2CN2CCOc3c(cc(-c4cccc(OC)n4)cc3OC)C2)cc1	-0.7%
C[C@]12CCC3c4ccc(OC(=O)c5ccccc5)cc4CCC3C1CCC2=O (stereo partly drawn)	3.2%
Cc1noc(C)c1C(=O)N1CCC2(CC1)CCN(c1cccc(-c3ccccc3)c1)CC2	0.6%
CC(=O)Nc1ccccc1-c1nc(CNC(=O)c2ccc(F)c(F)c2)c(C)o1	0.1%
COc1ccc(C2=Nn3c(nnc3-c3ccccc3OC)SC2)cc1OC1CCOC1 (stereo not drawn)	5.0%
O=c1cnc2cnc(N3CCNCC3)nc2n1CCc1ccccc1	-0.6%
CC(=O)OC1CCC23CC1(C)CCC2C(C)(C)CC3OC(C)=O (stereo not drawn)	0.1%
O=C(Nc1cccc(F)c1)N1CC[C@@]2(CCCN(C(=O)c3cc(C(F)(F)F)cc(C(F)(F)F)c3)C2)C1	1.3%
Cc1noc(C)c1-c1nc(N2CCN(C)CC2)c2ccccc2n1	0.3%
COc1ccccc1CCn1c(=O)c(C)nc2cncnc21	-0.3%
CN1CCCC(CNC(=O)c2cnn(-c3ncc4c(n3)-c3ccccc3CC4)c2C2CC2)C1 (stereo not drawn)	1.5%
CN(C)C(=O)c1ccc(-c2ccc3ncnc(NCCN4CCOCC4)c3c2)cc1	1.3%

Later entries
SMILES	PINK1 expr mod
CS(=O)(=O)Nc1cccc(-c2ccc3ncnc(Nc4ccccc4)c3c2)c1	2.0%
CNc1nc(-c2cccc(NS(C)(=O)=O)c2)nc2ccccc12	0.4%
Cc1csc(SCC(=O)NCC2Cc3cc(-c4cncnc4)ccc3O2)n1 (stereo not drawn)	-0.8%
COc1ccc(C(=O)NCC2Cc3cccc(-c4cncnc4)c3O2)c(OC)c1OC (stereo not drawn)	-1.1%
CC(CCC(=O)O)C1CCC2C3CC[C@@H]4CCCC[C@@]4(C)C3CC[C@@]12C (stereo partly drawn)	-0.8%
CC(C)c1ccc(CN2CCC3(CCC(CNC(=O)c4ccn(C)n4)O3)CC2)cc1 (stereo not drawn)	-0.4%
COc1cccc(C2(CC(=O)N3CCN(c4nonc4C)CC3)CC(=O)N(C3CCCC3)C2=O)c1 (stereo not drawn)	-0.5%
Cc1ccc2nc(-c3ccccc3C)c(CN(CC3CCCO3)C(=O)c3cccs3)cc2c1 (stereo not drawn)	1.1%
CCC1(C2CCN(C(=O)c3ccc4ccccc4c3)CC2)NC(=O)N(CCc2scnc2C)C1=O (stereo not drawn)	0.9%
COc1cc2nc(N3CCCC(O)C3)c(CNCc3ccccc3F)cc2c(OC)c1OC (stereo not drawn)	1.9%
N#Cc1c(Cc2cccc3ccccc23)nn(CCO)c1N	-0.5%
CS(=O)(=O)N1CCC[C@@]2(CCN(c3ccccc3)C2)C1	-0.5%
COc1cc(Cl)c(CN2CCOc3ccc(CN4CCCCC4CO)cc3C2)cc1OC (stereo not drawn)	-0.7%
